Compound activity: PubChem BioAssay, Broad Institute
Env fusion inh – HIV envelope-mediated fusion inhibition; HeLa-JRFL Env/CEM21 cell fusion, luciferase; inhibition, % at 12.3 µM; hit rate 1.1% among 360,000;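 active = mean replicate inhibition score of at least 50 and every replicate individually at or above 50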;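 note: 0% = plate neutral controls and 100% = maraviroc near 300 nM; one replicate is shown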
Yeast UUG start – yeast start codon fidelity modulation; hit rate 0.13% among 350,000; S. cerevisiae UUG-firefly luciferase reporter, luminescence/redox ratio; activity score, % at 18.7 µM; AID 602363;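 active = replicate mean at a twofold rise or more, about +100% in these data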;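 note: firefly luciferase made from a UUG start codon reports start codon fidelity; reporter light over untreated wells divided by growth signal over untreated wells; some hits fall short of that in this replicate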
* marks the source's active call; other numbers are inactive results; [ ] = dose if it differs, or a comment.

Results for C[C@H](CO)N1C[C@H](C)[C@H](CN(C)S(=O)(=O)c2cccs2)OCCCC[C@H](C)Oc2ccc(NS(=O)(=O)c3ccc(Cl)cc3)cc2C1=O ?
Env fusion inh: 47[16.7 µM]; Yeast UUG start: -4

How did C[C@@H]1CCCCO[C@H](CN(C)C(=O)Nc2ccc(C(F)(F)F)cc2)[C@H](C)CN([C@H](C)CO)C(=O)c2cc(NS(=O)(=O)c3cn(C)cn3)ccc2O1 do in these assays?
Env fusion inh: 0[16.7 µM]; Yeast UUG start: -14

Results for C[C@H]1CCCCO[C@H](CN(C)C(=O)Nc2ccccc2)[C@@H](C)CN([C@@H](C)CO)C(=O)c2cc(NS(=O)(=O)c3ccc(F)cc3)ccc2O1 ?
Env fusion inh: -65[16.7 µM]; Yeast UUG start: -7

What do the screens show for `C[C@H](CO)N1C[C@H](C)[C@H](CN(C)C(=O)Nc2ccc3c(c2)OCO3)Oc2c(NC(=O)Nc3ccc(F)cc3)cccc2C1=O`?
Env fusion inh: 18[16.7 µM]; Yeast UUG start: 8

Results for COc1ccccc1S(=O)(=O)N(C)C[C@H]1Oc2cc(C#CCC(C)C)ccc2S(=O)(=O)N([C@@H](C)CO)C[C@H]1C ?
Env fusion inh: 55*[16.7 µM]; Yeast UUG start: -2

Results for C[C@@H]1CN([C@@H](C)CO)C(=O)Cc2cc(NC(=O)Nc3ccc(F)cc3)ccc2O[C@H]1CN(C)Cc1ccc(C(=O)O)cc1 ?
Env fusion inh: -1[16.7 µM]; Yeast UUG start: -7

How did C[C@@H]1CN([C@H](C)CO)C(=O)c2cc(NC(=O)Cc3cn(C)c4ccccc34)ccc2O[C@@H]1CN(C)S(=O)(=O)c1ccccc1 do in these assays?
Env fusion inh: -11[16.7 µM]; Yeast UUG start: -7

What do the screens show for `C[C@H]1CN([C@@H](C)CO)C(=O)c2cc(C#CCN(C)C)cnc2O[C@H]1CN(C)C(=O)NC1CCCC1`?
Env fusion inh: -15[16.7 µM]; Yeast UUG start: 2

Results for C[C@@H]1CN([C@@H](C)CO)C(=O)c2cc(NC(=O)Nc3cccc4ccccc34)ccc2O[C@@H](C)CCCCO[C@@H]1CN(C)C(=O)C1CCCCC1 ?
Env fusion inh: -29[16.7 µM]; Yeast UUG start: -12

How did Cc1noc(C)c1NC(=O)Nc1ccc2c(c1)C(=O)N([C@@H](C)CO)C[C@H](C)[C@@H](CN(C)S(=O)(=O)c1cn(C)cn1)OCCCC[C@H](C)O2 do in these assays?
Env fusion inh: -8[16.7 µM]; Yeast UUG start: -3

Results for Cc1ccc(S(=O)(=O)NCC[C@H]2CC[C@@H](NC(=O)c3cccnc3)[C@@H](CO)O2)cc1 ?
Env fusion inh: 6[16.7 µM]; Yeast UUG start: -10

What do the screens show for `Cc1noc(C)c1NC(=O)N(C)C[C@@H]1Oc2ncc(C#CC3CCCC3)cc2C(=O)N([C@H](C)CO)C[C@H]1C`?
Env fusion inh: -10[16.7 µM]; Yeast UUG start: 33

What do the screens show for `COc1ccc(CN(C)C[C@@H]2OCCCC[C@@H](C)Oc3ccc(NC(=O)Cc4ccccc4)cc3C(=O)N([C@H](C)CO)C[C@H]2C)cc1`?
Env fusion inh: -15[16.7 µM]; Yeast UUG start: 16

Results for COc1ccc(S(=O)(=O)Nc2ccc3c(c2)C(=O)N([C@H](C)CO)C[C@@H](C)[C@@H](CN(C)Cc2ccncc2)OCCCC[C@@H](C)O3)cc1 ?
Env fusion inh: 25[16.7 µM]; Yeast UUG start: 16

Results for C[C@@H]1CN([C@@H](C)CO)C(=O)c2cc(NC(=O)c3ccncc3)ccc2O[C@@H]1CN(C)Cc1ccccc1 ?
Env fusion inh: -18[16.7 µM]; Yeast UUG start: 8

Brought forward from above: 3 entries; new compounds follow.
What do the screens show for `COc1ccc(CN(C)C[C@@H]2OCCCC[C@@H](C)Oc3ccc(NC(=O)Cc4ccccc4)cc3C(=O)N([C@H](C)CO)C[C@H]2C)cc1`?
Env fusion inh: -15[16.7 µM]; Yeast UUG start: 16

Results for COc1ccc(S(=O)(=O)Nc2ccc3c(c2)C(=O)N([C@H](C)CO)C[C@@H](C)[C@@H](CN(C)Cc2ccncc2)OCCCC[C@@H](C)O3)cc1 ?
Env fusion inh: 25[16.7 µM]; Yeast UUG start: 16

Results for C[C@@H]1CN([C@@H](C)CO)C(=O)c2cc(NC(=O)c3ccncc3)ccc2O[C@@H]1CN(C)Cc1ccccc1 ?
Env fusion inh: -18[16.7 µM]; Yeast UUG start: 8

Results for C[C@H](CO)N1C[C@H](C)[C@H](CN(C)C(=O)C2CCC2)Oc2cc(-c3cccnc3)ccc2S1(=O)=O ?
Env fusion inh: 11[16.7 µM]; Yeast UUG start: -5

What do the screens show for `CCCC(=O)Nc1ccc2c(c1)C(=O)N(C)[C@@H]1CC[C@H](CC(=O)NCCOC)O[C@H]1CO2`?
Env fusion inh: -6[16.7 µM]; Yeast UUG start: -12

What do the screens show for `Cc1ccc(S(=O)(=O)N(C)C[C@H]2Oc3ccc(NS(=O)(=O)c4c(C)noc4C)cc3CC(=O)N([C@@H](C)CO)C[C@@H]2C)cc1`?
Env fusion inh: -3[16.7 µM]; Yeast UUG start: 16

What do the screens show for `C[C@H](CO)N1C[C@H](C)[C@H](CN(C)Cc2ccc(-c3ccccc3)cc2)Oc2ccc(NC(=O)Nc3ccc(C(F)(F)F)cc3)cc2CC1=O`?
Env fusion inh: -8[16.7 µM]; Yeast UUG start: 1

Results for C[C@@H]1CN([C@H](C)CO)C(=O)c2cc(C3=CCCC3)cnc2O[C@@H]1CN(C)C ?
Env fusion inh: -2[16.7 µM]; Yeast UUG start: -8

How did C[C@@H]1CN([C@@H](C)CO)C(=O)c2cc(-c3ccc(F)cc3)cnc2O[C@@H]1CN(C)C(=O)Nc1ccc(F)cc1 do in these assays?
Env fusion inh: 35[16.7 µM]; Yeast UUG start: -1

Results for C[C@H]1CN([C@@H](C)CO)C(=O)c2cc(NC(=O)Nc3ccccc3)ccc2O[C@H]1CN(C)C(=O)Nc1cccc2ccccc12 ?
Env fusion inh: -24[16.7 µM]; Yeast UUG start: -1

How did O=C(Nc1cccc(F)c1)N[C@H]1CC[C@H](CCn2cc(Cc3ccccc3)nn2)O[C@@H]1CO do in these assays?
Env fusion inh: -21[16.7 µM]; Yeast UUG start: -21

How did C[C@@H]1CN([C@@H](C)CO)S(=O)(=O)c2ccc(C3=CCCCC3)cc2O[C@H]1CN(C)C(=O)CN(C)C do in these assays?
Env fusion inh: 25[16.7 µM]; Yeast UUG start: 20

Results for Cc1ccc(S(=O)(=O)N(C)C[C@@H]2OCCCC[C@@H](C)Oc3ccc(NC(=O)CCCN(C)C)cc3C(=O)N([C@H](C)CO)C[C@@H]2C)cc1 ?
Env fusion inh: -17[16.7 µM]; Yeast UUG start: 6

How did C[C@@H]1CCCCO[C@@H](CN(C)C)[C@H](C)CN([C@H](C)CO)C(=O)c2cc(NS(C)(=O)=O)ccc2O1 do in these assays?
Env fusion inh: 0[16.7 µM]; Yeast UUG start: -10

What do the screens show for `COc1ccc(NC(=O)Nc2ccc3c(c2)C(=O)N([C@H](C)CO)C[C@H](C)[C@H](CN(C)S(=O)(=O)c2cccs2)O3)cc1`?
Env fusion inh: 36[16.7 µM]; Yeast UUG start: -7

How did C[C@H]1CN([C@@H](C)CO)C(=O)c2cc(NC(=O)Nc3ccccc3)ccc2O[C@@H]1CN(C)C(=O)Nc1ccc2c(c1)OCO2 do in these assays?
Env fusion inh: -21[16.7 µM]; Yeast UUG start: -2

How did O=C(NCC[C@H]1CC[C@H](NS(=O)(=O)c2ccccc2)[C@@H](CO)O1)c1ccc2c(c1)OCO2 do in these assays?
Env fusion inh: -8[16.7 µM]; Yeast UUG start: 19

What do the screens show for `CN(C)CCCNC(=O)C[C@@H]1C=C[C@H](NS(=O)(=O)c2ccccc2)[C@H](CO)O1`?
Env fusion inh: -2[16.7 µM]; Yeast UUG start: 4

Entries listed so far with a CF3 group:
How did C[C@@H]1CCCCO[C@H](CN(C)C(=O)Nc2ccc(C(F)(F)F)cc2)[C@H](C)CN([C@H](C)CO)C(=O)c2cc(NS(=O)(=O)c3cn(C)cn3)ccc2O1 do in these assays?
Env fusion inh: 0[16.7 µM]; Yeast UUG start: -14

What do the screens show for `C[C@H](CO)N1C[C@H](C)[C@H](CN(C)Cc2ccc(-c3ccccc3)cc2)Oc2ccc(NC(=O)Nc3ccc(C(F)(F)F)cc3)cc2CC1=O`?
Env fusion inh: -8[16.7 µM]; Yeast UUG start: 1

The main list resumes, repeating the 2 entries before the break.
How did O=C(NCC[C@H]1CC[C@H](NS(=O)(=O)c2ccccc2)[C@@H](CO)O1)c1ccc2c(c1)OCO2 do in these assays?
Env fusion inh: -8[16.7 µM]; Yeast UUG start: 19

What do the screens show for `CN(C)CCCNC(=O)C[C@@H]1C=C[C@H](NS(=O)(=O)c2ccccc2)[C@H](CO)O1`?
Env fusion inh: -2[16.7 µM]; Yeast UUG start: 4

What do the screens show for `CNC[C@H]1OCCCC[C@@H](C)Oc2ccc(NS(=O)(=O)c3ccccc3)cc2C(=O)N([C@H](C)CO)C[C@H]1C`?
Env fusion inh: -9[16.7 µM]; Yeast UUG start: 23

Results for C[C@H]1CN([C@@H](C)CO)S(=O)(=O)c2ccc(C#CC(C)(C)O)cc2O[C@H]1CN(C)Cc1ccncc1 ?
Env fusion inh: 4[16.7 µM]; Yeast UUG start: -10

How did Cc1ccc(S(=O)(=O)N(C)C[C@@H]2Oc3c(NS(=O)(=O)c4ccccc4)cccc3C(=O)N([C@H](C)CO)C[C@@H]2C)cc1 do in these assays?
Env fusion inh: -3[16.7 µM]; Yeast UUG start: 1

How did C[C@@H]1CN([C@@H](C)CO)C(=O)Cc2cc(NS(=O)(=O)c3cccs3)ccc2O[C@H]1CN(C)S(=O)(=O)c1ccc(Cl)cc1 do in these assays?
Env fusion inh: -21[16.7 µM]; Yeast UUG start: -6

What do the screens show for `COc1ccccc1-c1cn(CC[C@H]2CC[C@@H](NC(=O)C3CCCCC3)[C@@H](CO)O2)nn1`?
Env fusion inh: 13[16.7 µM]; Yeast UUG start: -7

How did C[C@@H]1CN([C@H](C)CO)C(=O)Cc2cc(NC(=O)Nc3ccc(F)cc3)ccc2O[C@@H]1CN(C)Cc1ccc(-c2ccccc2)cc1 do in these assays?
Env fusion inh: 3[16.7 µM]; Yeast UUG start: 0

Results for Cc1noc(C)c1NC(=O)N(C)C[C@H]1Oc2ccc(NC(=O)Nc3ccc(F)cc3)cc2CC(=O)N([C@@H](C)CO)C[C@H]1C ?
Env fusion inh: -4[16.7 µM]; Yeast UUG start: 8

What do the screens show for `O=C(N[C@H]1C=C[C@H](CC(=O)N2CCOCC2)O[C@H]1CO)c1cccc(F)c1`?
Env fusion inh: 15[16.7 µM]; Yeast UUG start: -7

How did C[C@@H]1CCCCO[C@@H](CN(C)C(=O)Nc2ccc3c(c2)OCO3)[C@H](C)CN([C@H](C)CO)C(=O)c2cc(NC(=O)Nc3ccc4c(c3)OCO4)ccc2O1 do in these assays?
Env fusion inh: 10[16.7 µM]; Yeast UUG start: 4

How did O=C(C[C@@H]1C[C@@H]2c3cc(NC(=O)Nc4ccc(F)cc4)ccc3O[C@@H]2[C@H](CO)O1)NC1CCCC1 do in these assays?
Env fusion inh: 12[16.7 µM]; Yeast UUG start: -6

How did Cc1noc(C)c1S(=O)(=O)Nc1ccc2c(c1)C(=O)N([C@H](C)CO)C[C@@H](C)[C@@H](CN(C)C(=O)c1ccncc1)OCCCC[C@@H](C)O2 do in these assays?
Env fusion inh: -4[16.7 µM]; Yeast UUG start: 9

What do the screens show for `COc1ccc(CN(C)C[C@H]2Oc3ccc(NC(=O)Nc4ccccc4)cc3C(=O)N([C@H](C)CO)C[C@@H]2C)cc1`?
Env fusion inh: 9[16.7 µM]; Yeast UUG start: -10

Results for COCCNC(=O)C[C@@H]1C[C@@H]2c3cc(NC(=O)c4cccnc4)ccc3O[C@@H]2[C@@H](CO)O1 ?
Env fusion inh: -1[16.7 µM]; Yeast UUG start: -10

Results for C[C@@H]1CN([C@H](C)CO)S(=O)(=O)c2ccc(C#C[C@@H](C)O)cc2O[C@@H]1CN(C)Cc1ccncc1 ?
Env fusion inh: -7[16.7 µM]; Yeast UUG start: 16

Results for Cc1noc(C)c1S(=O)(=O)Nc1ccc2c(c1)C(=O)N([C@@H](C)CO)C[C@H](C)[C@H](CN(C)Cc1ccc(Cl)c(Cl)c1)OCCCC[C@@H](C)O2 ?
Env fusion inh: -6[16.7 µM]; Yeast UUG start: 29

Results for CO[C@H]1CN(C)C(=O)c2ccc(NC(C)=O)cc2OC[C@@H](C)N(Cc2nccs2)C[C@H]1C ?
Env fusion inh: -19[16.7 µM]; Yeast UUG start: -27

What do the screens show for `CCC(=O)Nc1ccc2c(c1)C(=O)N(C)C[C@@H](OC)[C@@H](C)CN(CCc1ccccc1)[C@H](C)CO2`?
Env fusion inh: -20[16.7 µM]; Yeast UUG start: -7

How did O=C(CN1CCOCC1)NCC[C@@H]1CC[C@@H](NC(=O)Nc2ccc(C(F)(F)F)cc2)[C@H](CO)O1 do in these assays?
Env fusion inh: 8[16.7 µM]; Yeast UUG start: -3

What do the screens show for `Cc1ccc(-c2cnc3c(c2)C(=O)N([C@H](C)CO)C[C@H](C)[C@H](CN(C)C)O3)cc1`?
Env fusion inh: 6[16.7 µM]; Yeast UUG start: -11

Results for C[C@H](CO)N1C[C@H](C)[C@H](CN(C)Cc2cncnc2)Oc2cc(-c3ccccc3F)ccc2S1(=O)=O ?
Env fusion inh: 24[16.7 µM]; Yeast UUG start: -10

What do the screens show for `CO[C@H]1CN(C)C(=O)c2cc(NS(C)(=O)=O)ccc2OC[C@@H](C)N(Cc2ccccc2)C[C@@H]1C`?
Env fusion inh: 9[16.7 µM]; Yeast UUG start: 1

Results for O=C(Nc1ccccc1F)N[C@H]1CC[C@H](CCNC(=O)C2CC2)O[C@@H]1CO ?
Env fusion inh: -9[16.7 µM]; Yeast UUG start: 18

Not all compounds are listed (hit frequency here may not be typical).
